# Screening data deposited in PubChem by several laboratories.
# VCAM-1 rise = boosters of cytokine-driven VCAM-1 levels – cell-based, plate reader, pooled HUVEC, TNFa stimulus (AID 455); HUVEC TNFa-induced VCAM-1 immunofluorescence, plate reader; numbers were filed only for top-ranked candidate wells; augmentation, % at 5 µM; 0.2% of 10,000 active;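 active = a compound raising TNF-alpha-driven VCAM-1 surface staining, with its hit status upheld on visual or statistical review; inactive = the rest, including hits rejected on review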;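 note: 0% = TNFa with vehicle and 100% = strongest image-checked hit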
# Proteasome disasm = blocks ATP-dependent breakdown of the yeast 26S proteasome. anti-FLAG beads, GFP-proteasome disassembly, flow cytometry. inhibition of disassembly, % (concentration not given with the values). 0.2% of 24,000 active;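 active = above 40%; inconclusive = likely self-fluorescent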;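 note: plate controls were ATP control with full disassembly for no effect and ATP-gamma-S intact proteasomes for full effect; higher percent means more bead fluorescence retained so stronger block of disassembly; stock transfer was 100 nL into about 10 µL; wells with too few beads may also be inconclusive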
# Numbers without * were called inactive; i = inactive; ? = inconclusive; · = no result given. These rows are one share of the data; count on the stated rates, not on these rows.
# The opening 7 records (preview)
SMILES,VCAM-1 rise,Proteasome disasm
COc1ccc(C2C(C(=O)N3CCOCC3)CCC(=O)N2c2cc(OC)c(OC)c(OC)c2)cc1 (configuration not stated),·,-0.9
CC1Cc2ccccc2N1C(=O)CSc1nc2ccccc2n1CC(=O)N1CCOCC1 (configuration not stated),i,-0.1
CCOC(=O)N1CCC2(CC1)CC(=O)c1cc(O)ccc1O2,·,0.9
Cn1nnnc1SCC(=O)NC1CCCCC1,i,0.5
O=C(Cn1c(NCCO)nc2ccccc21)c1ccccc1,i,-1.9
O=C(c1scc2c1CCCC2)N1CCCCC1,·,0.2
COc1ccc(NC(=O)c2cc(-c3ccccc3OC)on2)cc1,·,0.6

# This part in full, previewed entries included:
SMILES,VCAM-1 rise,Proteasome disasm
COc1ccc(C2C(C(=O)N3CCOCC3)CCC(=O)N2c2cc(OC)c(OC)c(OC)c2)cc1 (configuration not stated),·,-0.9
CC1Cc2ccccc2N1C(=O)CSc1nc2ccccc2n1CC(=O)N1CCOCC1 (configuration not stated),i,-0.1
CCOC(=O)N1CCC2(CC1)CC(=O)c1cc(O)ccc1O2,·,0.9
Cn1nnnc1SCC(=O)NC1CCCCC1,i,0.5
O=C(Cn1c(NCCO)nc2ccccc21)c1ccccc1,i,-1.9
O=C(c1scc2c1CCCC2)N1CCCCC1,·,0.2
COc1ccc(NC(=O)c2cc(-c3ccccc3OC)on2)cc1,·,0.6
c1cn(CC2(Cn3ccnc3)COC2)cn1,i,-0.1
O=C(O)c1ccc(CSc2nnc(-c3ccco3)o2)cc1,·,-0.4
Cc1noc(C)c1S(=O)(=O)N1CCCC(C(=O)N2CCc3ccccc3C2)C1 (configuration not stated),·,-5.0
Cc1nc2ccc3nc(NC(=O)c4ccc5c(c4)OCCO5)sc3c2s1,·,0.9
COc1ccc2c(c1OC)C(=O)O[C@@H]2[C@H]1c2c(cc3c(c2OC)OCO3)CCN1C,i,-0.2
Cc1oc(-c2ccccc2F)nc1CS(=O)CC(=O)NCc1cccs1 (configuration not stated),·,5.0
CC(=O)c1cccc(NC(=O)Nc2cccs2)c1,·,-0.1
Cc1oc(-c2ccccc2F)nc1CS(=O)(=O)CC(=O)NCCCc1ccccc1,·,0.3
Cc1cc(S(=O)(=O)Nc2cccnc2)c(C)s1,·,-1.6
CC(C)(C)c1[nH]nc2c1C(c1ccccc1OC(=O)N1CCOCC1)C(C#N)=C(N)O2 (configuration not stated),·,-1.0
Cc1nn(C)c(C)c1S(=O)(=O)N1CCCC(C(=O)NC2CCCCCC2)C1 (configuration not stated),·,3.0
Cc1ccc(C)n1CCN1CCN(C(=O)c2ccco2)CC1,·,-0.8
CCOC(=O)N1CCN(C(=O)c2cc(C)no2)CC1,·,0.5

# Full records, quoted from the list. Order of values: VCAM-1 rise, Proteasome disasm
# Shown for Cn1nnnc1SCC(=O)NC1CCCCC1 : i, 0.5
# Shown for Cc1oc(-c2ccccc2F)nc1CS(=O)(=O)CC(=O)NCCCc1ccccc1 : ·, 0.3

# Later entries
SMILES,VCAM-1 rise,Proteasome disasm
CCOC(=O)c1nnn(CC(=O)Nc2ccccc2OC)c1C(=O)OCC,·,-2.7
Cc1cccc2sc(NC(=O)CCNS(=O)(=O)c3cccc4nonc34)nc12,·,-0.7
CCCCC(=O)NCCc1cc2c(OC)ccc(OC)c2[nH]c1=O,·,-1.1
CCOc1ccc(S(=O)(=O)N2CCN(c3ccc(C)cc3C)CC2)cc1,i,0.9
CSc1nccn1CC(=O)Nc1ccc(F)cc1,·,0.4
O=S(=O)(NCC1CCCO1)c1cccc(C(F)(F)F)c1 (configuration not stated),i,-0.2
CCOc1ccc(NC(=O)C(CC)NC(=O)c2ccccc2CO)cc1 (configuration not stated),·,0.8
Cn1ncc(Br)c1C(=O)Nc1ccc(Cl)cn1,·,0.0
CCOc1cc(N2CCOCC2)c(OCC)cc1NC(=O)CSc1cccc[n+]1[O-],i,0.3
CCn1c(SCC(=O)Nc2nc3ccc(C)cc3s2)nc2c(c1=O)SC(C)C2 (configuration not stated),·,-4.6
COc1ccc(OC)c(NC(=O)c2nnn(Cc3ccc(Br)cc3F)c2N)c1,i,-0.3
COc1ccc(Oc2nc(Oc3ccc(OC)cc3)nc(Oc3ccc(OC)cc3)n2)cc1,i,-1.0
COc1ccc(-n2nc(C(=O)NCc3ccco3)c3c4ccccc4n(C)c3c2=O)cc1Cl,·,19
C/C=C/c1ccc(OCCn2cncn2)c(OC)c1,i,-1.4
COC(=O)CCC(=O)c1oc2ccccc2c1NC(=O)CCCN1C(=O)c2ccccc2C1=O,·,3.0
CCN(CC)CCNC(=O)c1ccc(NC(C)=O)cc1,i,1.3
COc1ccccc1N1CCN(C(=O)C2CC=CCC2C(=O)O)CC1 (configuration not stated),i,0.2
Cc1ccccc1NC(=O)CN(C)S(=O)(=O)c1cccc2cccnc12,·,-0.5
O=C(CS(=O)CC(=O)Nc1cccc2c1CCCC2)Nc1ccc(F)cc1 (configuration not stated),i,-0.9
CC(C(=O)NCCC1=CCCCC1)N1C(=O)c2ccccc2C1=O (configuration not stated),·,0.7
Cc1noc(C)c1CSc1nc2cc(S(=O)(=O)N3CCOCC3)ccc2o1,i,0.8
O=C(NCC12CC3CC(CC(C3)C1)C2)c1nn2c(c1Cl)NC(c1ccco1)CC2C(F)(F)F (configuration not stated),·,8.8
COC(=O)C(NS(=O)(=O)c1ccc(NC(C)=O)cc1)C(C)C (configuration not stated),·,0.5
CCCCOC(=O)n1c(SCC(=O)N(CC)CC)nc2ccccc21,i,0.7
O=C(CCc1nc(-c2ccccc2F)no1)NCCc1ccccc1Cl,·,-1.8
COc1ccc(C)cc1NC(=O)CN1CCN(S(=O)(=O)c2ccc(Br)cc2)CC1,·,0.2
CCc1nc(C)ccc1OCC(=O)O,i,-0.2
CCOC(=O)CSc1nnc(CNC(=O)c2ccco2)n1C,·,-0.6
COc1ccc(C2CC(=O)Nc3ccccc3S2(=O)=O)cc1OC (configuration not stated),·,1.2
O=C(C1CCN(c2nnc(N3CCCC3=O)s2)CC1)N1CCN(Cc2ccc3c(c2)OCO3)CC1,·,2.5
CCCN1CCN(CCCNC(=O)C2CCCN(c3nc4ccc(OCC)cc4s3)C2)CC1 (configuration not stated),i,-0.1
CCOC(=O)CN1c2ccccc2NC(=O)CC1C (configuration not stated),·,0.0
Cc1csc(SCCn2c(N3CCOCC3)nc3c2c(=O)[nH]c(=O)n3C)n1,·,0.5
COc1cccc(C2=NOC(C(=O)N3CCc4ccccc4C3)C2)c1 (configuration not stated),i,1.2
Cc1nc(CNS(=O)(=O)c2cccnc2)cs1,·,-2.6
COc1cccc(C=Nc2cccnc2)c1O,·,0.7
COCCNc1cc(C)nc2c(-c3ccccc3OC)c(C)nn12,·,0.9
Cn1c(=O)n(CC(=O)NC2CCCCC2)c(=O)c2ccccc21,·,1.5
Cc1ccc2c(c1)NC(=O)C(CC(=O)NCCCN1CCCCC1C)O2 (configuration not stated),·,-1.1
COc1cccc2cc(C(=O)N3CCC(C)CC3)c(=O)oc12,·,-1.0
CC1(C)CC(=O)C=C(NC2CCS(=O)(=O)C2)C1 (configuration not stated),i,0.1
CCN(CC)S(=O)(=O)c1ccc(C(=O)Nc2c3c(nn2C(C)(C)C)CS(=O)(=O)C3)cc1,·,-0.9
Cc1ccc(Cn2nnc(C(=O)Nc3cc(C)ccc3C)c2N)cc1,·,-0.6
CC(=O)N1C(=O)C2(C(C#N)=C(N)Oc3cc(C)oc(=O)c32)c2ccccc21 (configuration not stated),i,0.3
CC(=O)N1CCN(S(=O)(=O)c2ccc(S(=O)(=O)NCC(C)C)cc2)CC1,i,-1.3
COc1ccc(-n2c(=O)cc(N3CCOCC3)[nH]c2=O)cc1,·,-5.6
COc1ccc(NC(=O)CSc2nnc(Cc3cccn3C)n2-c2ccc(F)cc2)cc1OC,i,1.7
COc1cccc(-c2nc(-c3ccc(NC(=O)c4cccnc4)cc3)no2)c1,·,-0.5
C=CCn1c(=O)c2ccccc2n2c(SCC(=O)Nc3cc(C)on3)nnc12,i,1.0
C=CCNS(=O)(=O)c1nc(C)c(Cl)c(C)c1C#N,·,-1.9
O=C(CCCn1c(=S)[nH]c2cc3c(cc2c1=O)OCO3)N1CCN(c2ccc(Cl)cc2)CC1,·,2.0
CCCNC(=O)Cn1cccc1C(=O)c1ccccc1,·,-1.6
COc1cc(OC)c(C2N(C)c3ccccc3N2C)cc1OC,i,-0.8
CN1CCN(CCCNC(=O)c2cc3c(=O)n(C)c4ccccc4c3s2)CC1,·,0.0
Cc1ccc(Cl)cc1N1CCN(C(=O)C2CCC(=O)N2C(C)C)CC1 (configuration not stated),·,-0.6
COc1cccc(NC(=O)Cn2cnc3sc(C)c(S(=O)(=O)N4CCN(C)CC4)c3c2=O)c1,·,-0.7
CC1CSc2nnc(CCc3ccccc3)n21 (configuration not stated),·,2.1
COc1ccccc1N1CCN(C(=O)CSc2nc3ccccc3c(=O)n2CC2CCCO2)CC1 (configuration not stated),·,-3.0
CCOc1ccc2nc(NC(=O)C3CCCN(S(=O)(=O)c4cccs4)C3)sc2c1 (configuration not stated),·,2.6
Cn1c(C(=O)NCC2CCCO2)cc2c(=O)[nH]c3ccccc3c21 (configuration not stated),i,-0.3

# Single values from the list.
# In Proteasome disasm, `CCOc1ccc2nc(NC(=O)C3CCCN(S(=O)(=O)c4cccs4)C3)sc2c1` (configuration not stated) is entered as 2.6
# In Proteasome disasm, `COc1ccc(NC(=O)CSc2nnc(Cc3cccn3C)n2-c2ccc(F)cc2)cc1OC` is entered as 1.7

# Next section.
SMILES,VCAM-1 rise,Proteasome disasm
Cn1c(=O)c2c(nc(NCCCO)n2C/C=C/c2ccccc2)n(C)c1=O,i,-0.1
Cc1cccc(NC(=O)c2cnc3n(c2=O)CCS3)c1,·,-0.2
COc1ccc(C(=O)C(CO)Oc2ccccc2OC)cc1OC (configuration not stated),·,0.0
CCSc1nnc(NC(=O)c2csc(C)c2)s1,i,1.2
NC(=O)c1ccc(C2SCC(=O)N2Cc2ccccc2)cc1 (configuration not stated),·,-1.1
O=C(c1ccccc1)c1coc2ccc(O)c(CN3CCOCC3)c12,i,1.9
COc1ccc(CNC(=O)C2CCN(S(=O)(=O)c3c(C)n[nH]c3C)CC2)cc1,·,1.6
Cc1cc2c(cc(C(=O)N3CCC(C(=O)NC4CCCC4)CC3)n2Cc2c(F)cccc2Cl)o1,·,0.8
COc1ccc(CCNC(=O)CCNS(=O)(=O)c2ccc3c(c2)CCN3C(C)=O)cc1OC,·,-1.4
COc1ccc(N2CSC3=C(C#N)C(c4cc(OC)c(OC)cc4OC)CC(=O)N3C2)c(OC)c1 (configuration not stated),·,2.0
CC1CCN(CCCNC(=O)c2n[nH]c(=O)c3ccccc23)CC1,·,-2.6
CCn1nnnc1SCC(=O)N1CCOCC1,i,-1.1
CC1(C(=O)NCc2cccnc2)CCC(=O)N1Cc1cccs1 (configuration not stated),·,0.6
COC(=O)c1cc2oc(C)cc2n1CC(=O)N1CCCc2ccccc21,·,2.4
Cc1ccc(-c2nn3c(C)nnc3s2)cc1NC(=O)c1ccc(Br)o1,·,-1.1
CCN1CCN(CCNC(=O)c2ccc(CS(=O)(=O)c3c(Cl)cccc3Cl)o2)CC1,·,-6.9
COc1ccc(-c2noc(COc3ccccc3OC)n2)cc1OC,·,-0.9
COc1ccc(CNC(=O)C(c2ccco2)N(Cc2cccs2)C(=O)Cc2cccs2)cc1 (configuration not stated),i,0.7
OCc1nc2ccccc2n1CCCOc1ccccc1,i,0.5
CC(=O)N1CCc2cc(S(=O)(=O)CCC(=O)N3CCN(C(=O)c4ccco4)CC3)ccc21,i,0.4
O=C(CN1CCN(S(=O)(=O)c2ccc(Cl)cc2)CC1)Nc1ccc(F)cc1F,·,0.3
Cc1onc(-c2ccccc2Cl)c1C(=O)NCCn1ccc2ccccc21,·,5.7
O=C(c1ccco1)N1CCN(c2cc(=O)n(C3CCCCC3)c(=O)[nH]2)CC1,·,-0.2
COc1cccc(C2CC(=O)NC3=C2C(=O)CCC3)c1 (configuration not stated),·,-2.1
COc1ccc(S(=O)(=O)NCC(c2cccnc2)N2CCN(c3ccccc3OC)CC2)cc1C (configuration not stated),·,8.8
C=CCn1c(SCC(=O)NCC2CCCO2)nc2scc(-c3ccco3)c2c1=O (configuration not stated),i,?
O=C(CSCCSCC(=O)c1ccco1)c1ccco1,i,-0.5
CC(C(N)=O)N1C(=O)C2C3C=CC(C3)C2C1=O (configuration not stated),i,-1.4
CCC(C)(C)n1nnnc1C(c1ccncc1)N1CCN(c2cccc(OC)c2)CC1 (configuration not stated),i,-1.6
CCOc1ccc(C2N(c3ccc(F)cc3)C(=O)C3CCCN32)cc1OC (configuration not stated),·,51*
O=C(NCc1cccs1)C1CC(c2ccccc2O)=NO1 (configuration not stated),i,-0.7
CCN1CCN(Cc2nc3c(c(=O)[nH]c(=O)n3C)n2Cc2ccccc2Cl)CC1,i,2.2
O=C(Nc1c2c(nn1-c1ccc(Cl)cc1)CS(=O)(=O)C2)c1ccc2c(c1)OCO2,·,-0.1
Cc1ccc(CNC(=O)c2nnn(-c3cccc(C)c3)c2N)cc1,·,-1.4
COc1ccc(OC)c(NC(=O)c2cc(S(=O)(=O)NCc3ccco3)ccc2F)c1,·,0.1
S=c1[nH]nc(-c2ccc(Br)cc2)n1Cc1ccco1,·,0.2
CCOC(=O)N1CCN(S(=O)(=O)c2ccc(F)c(C(=O)Nc3cccc(C)c3C)c2)CC1,·,2.2
COc1ccc(OC)c(NC(=O)C(CCS(C)(=O)=O)NC(C)=O)c1 (configuration not stated),·,-0.4
CCCn1c(C)cc(C(=O)COc2ncnc3sccc23)c1C,i,5.6
Cc1ccc2oc(=O)c3cnn(CC(=O)NCCC(C)C)c3c2c1,i,-1.0
